# High-throughput results from PubChem.
# HUVEC tox IL1B: toxic to HUVEC cells under IL-1B stimulation; HUVEC cell count loss, Hoechst imaging, IL-1B stimulated; AID 845; cell count reduction, % at 2 µM; hit rate 0.41% among 94,000;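 active = cell count reduction more than 3 SD above the screen-wide mean, cut at about 70% in these data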;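 also: normalized per plate to untreated control cells as the no-loss baseline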
# VCAM1 TNFa inh: reduces TNF alpha induced VCAM1 expression in HUVEC | HUVEC TNFa-induced VCAM-1 immunofluorescence, high-content imaging | inhibition, % at 2 µM | hit rate 0.48% among 95,000 | AID 802;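 active = inhibition above the batch mean plus 3 SD, with images confirmed as a hit by eye, cut at about 37% in these data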;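 also: 0% = TNF-stimulated DMSO wells and 100% = unstimulated control wells; not every result past the cut was called active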
# Smad3 inh: Smad3 (human) transcription factor binding inhibition; AID 630; hit rate 0.29% among 88,000; P84022; TR-FRET Smad3/Dy647-FoxH1 peptide binding, europium anti-His; inhibition, % at 25 µM;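 active = compounds that reduce the energy-transfer binding signal between the protein and its labelled peptide by more than half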;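 also: 0% = Smad3 plus labelled peptide maximal FRET and 100% = peptide-only background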
# ERb SRC1 inh: blocks coactivator binding to human estrogen receptor beta; Q92731; TR-FRET ER-beta LBD / SRC1-Cy5 peptide binding; receptor agonist-loaded with 1 µM estradiol; inhibition, % at 25.6 µM; hit rate 1.3% among 86,000; AID 633;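 active = compounds whose percent inhibition of the receptor-coactivator binding signal exceeds about 50% in the single-dose screen, limit read from the data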;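 also: 0% = receptor plus peptide wells without compound and 100% = peptide-only wells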
# Target sequence (Q92731 whole entry, looked up, the tested form may be a part): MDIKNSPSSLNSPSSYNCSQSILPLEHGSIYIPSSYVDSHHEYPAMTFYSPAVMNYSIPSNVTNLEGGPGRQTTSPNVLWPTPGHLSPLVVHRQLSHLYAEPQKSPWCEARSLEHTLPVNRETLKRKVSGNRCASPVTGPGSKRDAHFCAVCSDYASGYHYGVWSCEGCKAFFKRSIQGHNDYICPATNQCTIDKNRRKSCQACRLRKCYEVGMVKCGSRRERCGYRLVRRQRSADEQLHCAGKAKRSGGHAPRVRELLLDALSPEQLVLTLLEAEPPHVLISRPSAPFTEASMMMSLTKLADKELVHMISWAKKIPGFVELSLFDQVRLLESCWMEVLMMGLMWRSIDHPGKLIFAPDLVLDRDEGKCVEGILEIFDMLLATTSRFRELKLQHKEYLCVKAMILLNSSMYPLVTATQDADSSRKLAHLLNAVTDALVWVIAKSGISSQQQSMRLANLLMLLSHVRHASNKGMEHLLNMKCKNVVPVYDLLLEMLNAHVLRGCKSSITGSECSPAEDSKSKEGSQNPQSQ
# F-actin modifier: alters cytoskeleton assembly in HUVEC cells; HUVEC TNFa F-actin phalloidin imaging, high content; inhibition, % at 2 µM; hit rate 0.18% among 91,000;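 active = inhibition above the batch mean plus 3 SD and confirmed as a hit by visual image inspection, cut at about 30% in these data, passing the limit was not always enough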; also: strong numbers were not always called active
# Candida biofilm: kills Candida albicans biofilms. C. albicans biofilm + clotrimazole, Alamar Blue. inhibition, % at 6 µM. AID 834. hit rate 0.14% among 85,000;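 active = inhibition above 20%; inactive = inhibition below 20%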;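 also: preformed 24 hr biofilms exposed to compound for 48 hr; 0% = biofilm without compound and 100% = blank killed by clotrimazole plus chlorhexidine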
# TNFa cytotox: toxic to HUVEC cells under TNF alpha stimulation. HUVEC TNFalpha-stimulated, Hoechst cell count, imaging. cell count reduction, % at 2 µM. hit rate 0.17% among 93,000;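 active = cell count reduction exceeding the screen mean by over 5 SD, scaled to untreated wells per plate, cut at about 78% in these data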;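 also: cells counted after 24 h of TNF alpha exposure following the 1 h pretreatment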
# The depositor's hits bear a star; nt = not tested or not shown; [ ] = dose if it differs, or a comment. Not all compounds are listed; count on the stated rates, not on these rows.
SMILES,HUVEC tox IL1B,VCAM1 TNFa inh,Smad3 inh,ERb SRC1 inh,F-actin modifier,Candida biofilm,TNFa cytotox
Cc1cc(C)nc(NS(=O)(=O)c2ccc(NC(=O)NC3CCCCC3)cc2)n1,-10.6,9.3,11.9,-29.2,-13.7,3.4,-4.7
CC(Oc1ccc(-c2ccccc2)c(F)c1)c1ccn(S(=O)(=O)c2cccc3ccccc23)n1 (stereo not given),-31.5,11.1,nt,nt,1.3,nt,-7.1
C/C(=C\C(=O)c1ccc(Br)cc1)NCc1ccccc1,6.6,8.0,9.4,2.6[fluorescence artefact?],nt,5.2,-53.4
O=C(Nc1ccccc1C(=O)N1CCCCCC1)c1cccc(S(=O)(=O)N2CCOCC2)c1,-4.6,-12.7,6.9,-7.0,-13.2,4.5,15.7
CCOC(=O)Cn1c(=O)n(C2CCCC2)c(=O)c2ccccc21,-41.2,-35.5,-1.6,-4.3,8.4,5.3,-5.5
O=C(Nc1ccc2c(c1)OCO2)C1CCCCN1S(=O)(=O)c1ccc(F)cc1 (stereo not given),-13.6,0.7,-11.2,-6.3[fluorescence artefact?],41.4,0.1,-8.3
CCCC(=O)Nc1ccc(C(=O)Nc2nc(CC(=O)OCC)cs2)cc1,-0.7,10.6,0.7,-8.9,-3.3,-1.2,-12.4
Cc1cccc(Nc2nc3c(c(=O)n(C)c(=O)n3C)n2Cc2ccccc2)c1,-15.2,-12.5,12.2[fluorescence artefact?],1.8[fluorescence artefact?],14.6,-2.7,-15.1
COc1cc(C(=O)NCc2cccc3ccccc23)ccc1OCc1ccccc1,17.3,3.2,-13.3,-16.1,-23.0,-4.0,5.1
Cc1cc(=O)oc(C)c1C(=O)NCC1CCCO1 (stereo not given),-5.1,-1.2,-2.2,-6.1,9.6,3.4,9.0
COc1ccc(-n2c(=O)c3c4c(sc3n3cnnc23)CC(C)CC4)cc1 (stereo not given),-21.9,-10.0,0.2,-8.5,1.1,-1.0,-1.9
O=C(CN(Cc1ccccc1)C(=O)c1ccco1)NCc1ccc(F)cc1,-33.7,1.3,1.6,-5.8,22.1,0.0,2.3
c1ccc(-c2nnc(N3CCN(c4ccccn4)CC3)c3ccccc23)cc1,-12.8,-4.5,-3.1,-5.6,-0.4,0.6,-9.5
O=C(Nc1ccccc1)c1ccccc1NS(=O)(=O)c1ccc(Cl)s1,-9.6,-5.2,nt,nt,6.9,nt,-15.9
O=C(NC1CCN(C(=S)NCc2ccco2)CC1)C12CC3CC(CC(C3)C1)C2,-19.7,-5.2,nt,nt,-10.3,nt,-16.4

# 2 entries drawn at random from those above:
SMILES,HUVEC tox IL1B,VCAM1 TNFa inh,Smad3 inh,ERb SRC1 inh,F-actin modifier,Candida biofilm,TNFa cytotox
COc1ccc(-n2c(=O)c3c4c(sc3n3cnnc23)CC(C)CC4)cc1 (stereo not given),-21.9,-10.0,0.2,-8.5,1.1,-1.0,-1.9
O=C(Nc1ccccc1)c1ccccc1NS(=O)(=O)c1ccc(Cl)s1,-9.6,-5.2,nt,nt,6.9,nt,-15.9

# The results go on.
SMILES,HUVEC tox IL1B,VCAM1 TNFa inh,Smad3 inh,ERb SRC1 inh,F-actin modifier,Candida biofilm,TNFa cytotox
CCOC(=O)Cn1c(=O)cnc2ccccc21,-9.6,8.6,16.3,-3.4,3.4,1.8,-6.3
Cc1cccc(CCNC(=O)C2CCCN(S(=O)(=O)c3cnc[nH]3)C2)c1 (stereo not given),7.9,21.6,15.9,-12.3,-12.0,7.7,-22.0
CC1=C(C(N)=O)C(c2cccc(OCc3ccccc3)c2)n2nnnc2N1 (stereo not given),-13.0,-8.8,-1.8,-1.9[fluorescence artefact?],47.7,3.7,2.9
CC(C(=O)N1CCOCC1)N1C(=O)c2ccccc2C1=O (stereo not given),24.7,3.6,3.7,-3.5,1.2,6.3,5.4
COc1ccc(C2CC2/C(=N/OC(=O)c2cccs2)c2ccccc2)cc1 (stereo not given),2.5,0.3,-9.3,0.6,-0.3,0.3,-15.5
CCOC(=O)c1ccc(NC(=O)CCOc2ccc(OC)cc2)cc1,14.3,4.2,3.6,4.9,-3.7,9.2,1.8
CCc1ccc2c(CC(=O)Nc3nnc(C4CC4)s3)coc2c1,-14.6,15.2,13.9[fluorescence artefact?],-4.7,-11.9,2.8,-7.6
CC(C)(C)NS(=O)(=O)c1ccc(NC(=O)NC2CCCCC2)cc1,-5.9,13.2,nt,nt,2.8,nt,2.5
O=S(=O)(NCc1ccncc1)c1ccc(S(=O)(=O)NCC2CCCO2)cc1 (stereo not given),10.1,2.6,34.4[fluorescence artefact?],-12.3,-11.3,2.1,-4.3
COc1cccc(N2CCN(C(=O)CN(c3ccc(C)cc3)S(=O)(=O)c3c(C)n[nH]c3C)CC2)c1,-13.2,-5.4,7.8,-9.3,-11.7,2.7,-6.3
CC(=O)NC1(NC(C)=O)CCN(C)C(c2ccccc2)C1C (stereo not given),8.9,5.8,-0.2,17.6,35.1,6.2,-14.8
COc1cc(NC(=O)c2ccc(Br)o2)c(C(=O)O)cc1OC,nt,20.8,-10.9,6.8[fluorescence artefact?],-0.9,11.6,-0.4
CCCC(O)(CCN1CCCCC1)c1ccc(OCC)cc1 (stereo not given),27.8,-0.4,-7.1,10.3,-1.8,8.0,-2.6
Cn1c(CCN2CCCCC2)nc2cc(NS(=O)(=O)c3ccccc3)ccc21,15.5,16.6,-4.6,-1.0,-23.8,3.1,0.8
O=C(CCN1C(=O)C2(OCCO2)c2ccccc21)c1ccccc1,2.9,4.6,33.8[fluorescence artefact?],-7.9[fluorescence artefact?],-16.3,6.7,0.0
CCCC1=Nc2cc(C(=O)NCCCOC(C)C)ccc2Sc2ccccc21,-8.2,-6.2,15.8,0.2,3.5,2.1,-4.6
O=C(NCCCN1CCCC1=O)NC12CC3CC(CC(C3)C1)C2,3.9,-0.2,2.5,-5.0,-2.0,3.1,-5.9
CC1CN=C(N(Cc2ccccc2)C(=O)Nc2ccccc2)S1 (stereo not given),14.0,-9.7,3.6,1.0,12.9,5.6,-10.4
CC(=O)Nc1ccc(S(=O)(=O)NCC2CCC(C(=O)NCCC(C)C)CC2)cc1 (stereo not given),-103.0,-7.9,0.5,-6.3,11.2,1.7,-0.4
Cn1nnc2cc(C(=O)NC3CCCCC3)ccc21,0.7,16.0,-3.3,-7.8,18.3,-2.4,-0.4
CCCCn1nnnc1NCc1cccs1,-12.9,-8.5,-2.0,-26.7,-1.2,3.7,nt
CCOC(=O)c1cc(=O)n(Cc2ccccc2C)c2ccccc12,-21.8,85.7*,-5.2,4.0,33.4*,3.1,-45.6
O=C(NCCN1CCCCCC1)C1CC(=O)N(CCc2ccccc2)C1 (stereo not given),-46.7,-40.4,3.3,-7.1,21.5,6.7,-64.5
CCOC(=O)C1CCN(C(=O)/C=C/c2ccc(OC)cc2)CC1,3.1,33.1,10.1,-7.2,2.1,-2.4,-0.5
CCCOc1ncnc2c1[nH]c1ccccc12,15.0,15.7,nt,nt,-40.0,nt,1.7
CCCc1nc(NCc2ccccn2)c2nnn(Cc3ccccc3F)c2n1,-2.3,8.0,12.8,-8.3,6.5,3.6,-8.0
CCOC(=O)c1cnn(-c2ccccc2)c1NC(=O)C(F)(F)C(F)(F)C(F)(F)F,9.0,20.2,nt,nt,1.9,nt,-25.1
CCOC(=O)C1=C(C)Nc2nnnn2C1c1cccnc1 (stereo not given),-22.4,13.6,-7.0,-8.8,-7.1,2.4,-3.1
COc1ccc(CCN2C(=O)c3[nH]nc(-c4ccccc4O)c3C2c2cccc(O)c2)cc1OC (stereo not given),-11.0,13.9,-6.8,17.8,-61.7,4.4,-34.0

# Structures shown so far with an aryl methoxy group:
SMILES,HUVEC tox IL1B,VCAM1 TNFa inh,Smad3 inh,ERb SRC1 inh,F-actin modifier,Candida biofilm,TNFa cytotox
COc1cc(C(=O)NCc2cccc3ccccc23)ccc1OCc1ccccc1,17.3,3.2,-13.3,-16.1,-23.0,-4.0,5.1
COc1ccc(-n2c(=O)c3c4c(sc3n3cnnc23)CC(C)CC4)cc1 (stereo not given),-21.9,-10.0,0.2,-8.5,1.1,-1.0,-1.9
COc1ccc(C2CC2/C(=N/OC(=O)c2cccs2)c2ccccc2)cc1 (stereo not given),2.5,0.3,-9.3,0.6,-0.3,0.3,-15.5
CCOC(=O)c1ccc(NC(=O)CCOc2ccc(OC)cc2)cc1,14.3,4.2,3.6,4.9,-3.7,9.2,1.8
COc1cccc(N2CCN(C(=O)CN(c3ccc(C)cc3)S(=O)(=O)c3c(C)n[nH]c3C)CC2)c1,-13.2,-5.4,7.8,-9.3,-11.7,2.7,-6.3
COc1cc(NC(=O)c2ccc(Br)o2)c(C(=O)O)cc1OC,nt,20.8,-10.9,6.8[fluorescence artefact?],-0.9,11.6,-0.4
CCOC(=O)C1CCN(C(=O)/C=C/c2ccc(OC)cc2)CC1,3.1,33.1,10.1,-7.2,2.1,-2.4,-0.5
COc1ccc(CCN2C(=O)c3[nH]nc(-c4ccccc4O)c3C2c2cccc(O)c2)cc1OC (stereo not given),-11.0,13.9,-6.8,17.8,-61.7,4.4,-34.0
